# Source: PubChem BioAssay (National Center for Advancing Translational Sciences (NCATS))
# PINK1 modulator = changes PINK1 expression. PINK1 immunofluorescence, high-content cytometry, 24 h. Potency, µM (titrated, usually from 76.6 µM), for inactives: at the highest dose activation (PINK1 increase), most hits filed as activators. 410,000 tested, 0.2% active; active = well fitted activation curve with a large enough effect; inconclusive = small, poorly fitted or top-dose-only effect; inactive = flat fitted curve, though single readings scatter; cell line not stated here;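 further: potency means the concentration at half of the fitted maximal effect; % of control where 0% means no effect; nearly all actives have a fitted effect of over 65% in size; a mitochondrial uncoupler was the plate control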
#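 PINK1 protein, normally rapidly degraded, was detected by immunofluorescence after 24 hour compound treatment of a stable cell line. Titration data (5 concentrations) came from laser-scanning cytometry, with CCCP-treated wells as controls.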
# Six1-Eya2 blk = Six1/Eya2 interaction inhibition. AID 651725. AlphaScreen GST-Six1/His-Eya2 binding, biochemical; active compounds read low; control for the full effect not named in the record. activity change, % (no concentration beside the values). 360,000 tested, 0.56% active; in the data active = activity change below about -65%; inconclusive = about -30% to -65%; inactive = above about -30%; further: on the % scale 0 is the no-effect control and ±100 the full control effect
#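 Six1/Eya2 binding was read as AlphaScreen signal after compounds were pinned into GST-Six1 plus His-tagged Eya2 (5X stock 250/500 nM) in pH 8.0 Tris/NaCl/TCEP buffer, beads added, then incubated 1 h, 37 C, dark.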
# Sfp PPTase inh = inhibitors of Bacillus subtilis Sfp phosphopantetheinyl transferase; Biochemical Sfp PPTase activity, qHTS; Q9F4F7; 310,000 tested, 3.5% active; Potency, µM, inactives show max response, negative = inhibition, most hits filed as inhibitors; active means well fitted inhibition curve with a large enough effect; inconclusive means small, poorly fitted or top-dose-only effect, or another doubt; inactive means no such curve, though single readings can be large or run the other way;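 further: the enzyme is Sfp with the accession as filed and its product quenches rhodamine fluorescence; potency means the concentration at half of the fitted maximal effect; 0% = enzyme reaction without inhibitor and -100% = no enzyme wells; top concentration of the series not given in the record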
#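 Reaction rates are the 30-min fluorescence difference (ex 525, em 598 nm) in wells containing 15 nM Sfp, 5 uM rhodamine-CoA and 12.5 uM BHQ-2-YbbR at pH 7.6 with 10 mM MgCl2.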
# D2 agonist = activates the human D2 dopamine receptor; 360,000 tested, 0.084% active; P14416; AID 624465; DiscoveRx PathHunter D2 beta-arrestin, luminescence, 90 min; 100% = 57 uM dopamine signal; activation, % (no concentration beside the values); in the data active = activation above about 40%; inconclusive = about 15% to 40%; inactive = below about 15%; further: compound concentration not given in the record; the text of the record calls up to 30% inactive
#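 DiscoveRx PathHunter D2 beta-arrestin cells (2,100/well) attached overnight, then compound-stimulated 90 min at 37 C in HBSS/10 mM HEPES/0.1% Tween-20 buffer; beta-galactosidase complementation read by luminescence after 1 h at ambient temperature. Dopamine 57 uM final (EC100) as control.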
# D2 potentiator = human D2 receptor positive allosteric modulation. P14416. DiscoveRx D2 beta-arrestin cells, luminescence, 90 min; 100% = 57 uM dopamine signal. potentiation, % (concentration not given with the values). 360,000 tested, 0.23% active; active = potentiation of 50% or more; inconclusive = 30% to 50%; inactive = 30% or less;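 further: compound concentration not given in the record; tested on top of an EC20 dose of dopamine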
#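 PathHunter D2 cells, attached overnight at 37 deg C, received compound in DMSO plus dopamine at EC20 (50 nM final) for 90 min at 37 deg C. Beta-arrestin recruitment was read as luminescence after 1 h with detection reagent at ambient temperature.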
# CtBP-E1A blk = CtBP/E1A binding inhibition; 340,000 tested, 0.49% active; activity change, % (test concentration not listed); AID 651724; AlphaScreen GST-E1A/His-CtBP binding, 1536-well; active compounds read low; control for the full effect not named in the record; in the data active means activity change below about -65%; inconclusive means about -30% to -65%; inactive means above about -30%; further: on the % scale 0 is the no-effect control and ±100 the full control effect
#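 Steps: dispense buffer (Tris pH 8.0, NaCl 300 mM, TCEP 1 mM, BSA, Tween 20); add 5X protein mix (GST-E1A, His-CtBP, 125 nM each); pin 23 nL compound; 2 h at 37 °C, dark; add 5X beads (50 ug/mL); 1 h; read.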
# TRPV1 PAM = human TRPV1 potentiation. TRPV1-expressing cells, Fluo-8 calcium influx, capsaicin EC20 potentiation; host cell line not named in the record; control for the full effect not named in the record. potentiation, % at 8.33 µM. 320,000 tested, 0.02% active. AID 540277; active means potentiation above 80%; inconclusive means 30% to 80%; inactive means below 30%; further: 0% is about no effect
# Target sequence (Q8NER1 whole entry, looked up): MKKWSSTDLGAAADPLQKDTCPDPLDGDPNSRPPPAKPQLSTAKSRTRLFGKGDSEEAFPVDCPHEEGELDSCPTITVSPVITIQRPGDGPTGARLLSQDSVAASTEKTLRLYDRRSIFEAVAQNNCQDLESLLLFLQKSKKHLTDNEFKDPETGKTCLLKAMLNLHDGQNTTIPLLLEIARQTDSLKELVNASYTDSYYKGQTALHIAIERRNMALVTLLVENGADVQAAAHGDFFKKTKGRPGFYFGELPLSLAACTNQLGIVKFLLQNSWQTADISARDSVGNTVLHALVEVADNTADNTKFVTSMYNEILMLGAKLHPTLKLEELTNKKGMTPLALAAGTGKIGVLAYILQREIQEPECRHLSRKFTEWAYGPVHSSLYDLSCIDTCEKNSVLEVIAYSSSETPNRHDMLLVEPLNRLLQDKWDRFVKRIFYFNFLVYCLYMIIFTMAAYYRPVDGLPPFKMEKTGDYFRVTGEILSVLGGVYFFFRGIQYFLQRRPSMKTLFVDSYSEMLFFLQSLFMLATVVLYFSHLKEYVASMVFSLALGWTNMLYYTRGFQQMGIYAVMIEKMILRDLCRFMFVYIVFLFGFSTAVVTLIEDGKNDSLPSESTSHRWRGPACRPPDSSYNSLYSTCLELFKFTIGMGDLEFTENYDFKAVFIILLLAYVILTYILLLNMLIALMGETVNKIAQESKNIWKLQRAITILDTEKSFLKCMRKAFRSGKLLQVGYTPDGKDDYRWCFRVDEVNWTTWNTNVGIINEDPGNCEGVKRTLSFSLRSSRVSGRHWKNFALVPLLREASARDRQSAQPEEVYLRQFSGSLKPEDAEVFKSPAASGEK
#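 Fluo-8 calcium influx in TRPV1-expressing cells, kinetic read (ex 480/em 520 nm). Compound added and read 3 min for agonist activity, followed by capsaicin at EC20 final and 2 min further read for enhancement.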
# An asterisk follows results filed as active; ? = inconclusive; . = no result given; [ ] = remark or other dose. Rows were taken by chance (roughly 3.7% active in at least one column).
SMILES,PINK1 modulator,Six1-Eya2 blk,Sfp PPTase inh,D2 agonist,D2 potentiator,CtBP-E1A blk,TRPV1 PAM
Cc1cc(NC(=O)COc2ccccc2)n(-c2ccccc2)n1,7.5%[38.3 µM],0,6%,-2.6,-6,-3,-14
CCCCOc1ccc(NC(=O)c2cc(F)c(F)cc2Cl)cc1,13%,12,13%,4.3,-4,-12,-4
CS(=O)(=O)c1ccc2nc(NC(=O)CCS(=O)(=O)c3ccccc3)sc2c1,-1.6%,14,-3%,0.7,-2,0,4
CCc1nc2ccc(C(=O)N3CCN(S(=O)(=O)CC)CC3)cn2c1N(C=O)CCC(C)C,0.9%,2,.,-2.4,-8,1,.
CC(C)CCOc1ccc(/C=C2\CCn3c2nc2cc(C(=O)O)ccc2c3=O)cc1,5.0%,2,9%,-4.4,-8,0,0
O=C(CCS(=O)(=O)c1ccccc1)N1CCOCC1,1.0%,7,22%,-3.5,-1,1,3
CN1C(=O)CC(C(=O)Nc2ccccc2F)SC1=Nc1ccc2c(c1)OCO2 (stereo not given),5.4%,-2,3%,-4.4,7,-1,-2
Nc1nccnc1C(=O)OCC(=O)N1CCN(S(=O)(=O)c2ccc(Cl)cc2)CC1,0.0%,-3,.,1.0,0,3,-16
CCN1C(=O)C(CC(=O)Nc2ccc(OC)cc2)N(Cc2cccs2)C1=S (stereo not given),6.3%[38.3 µM],2,-17%,3.2,6,-2,-1
CC(C)Oc1cccc(NC(=O)C2(C)CCCN2C(=O)C(C)C)c1 (stereo not given),-0.4%,4,.,-5.3,-8,2,.
COC(=O)[C@]1(Cc2ccccc2)N[C@H](CN(C)C(=O)c2ccc(F)cc2)[C@@H]2C(=O)N(Cc3ccccc3)C(=O)[C@@H]21,1.8%,2,.,-2.6,-5,-2,.
CCOC(=O)C1C2C=CC3(CN(Cc4ccccc4)C(=O)C13)O2 (stereo not given),0.3%,1,6%,0.9,1,-2,-16
COc1cc(-c2nc(-c3ccncc3)no2)cc(OC)c1OC,0.7%[38.3 µM],0,15%,-1.1,-3,3,29
Cc1cc(=O)oc2cc(OCc3cc4c(cc3Cl)OCO4)ccc12,13%,3,15%,-1.1,-14,2,-5
Cc1cc(C)c(OCC(=O)OC(C)C(=O)NC2CC2)c(C)c1 (stereo not given),-1.2%,7,1%,4.1,-1,3,-7
CC(CCl)n1c(=O)c2ccccc2n1S(C)(=O)=O (stereo not given),0.0%,3,.,.,.,1,.
CCc1nn(CC(=O)NCCCN2CCN(C)CC2)c(=O)c2cc3sc(C)cc3n12,-0.9%,-2,1%,-1.6,-16,-5,1
Cc1ccc(-n2cc[nH]c2=S)cc1C,0.4%,9,79µM*,-8.7,-8,-12,-8
C/C=C\C=C\C(=O)Nc1cccc(C2=NOC3(C2)C[C@@H](C(N)=O)N(C(=O)C(c2ccccc2)c2ccccc2)C3)c1 (stereo not given in full),0.8%,-12,18µM*,-2.7,-4,.,?
N#Cc1cccc(NC(=O)COC(=O)c2ccccc2Sc2ccccc2C#N)c1,3.0%,21,34%[activator],-2.9,-2,16,7
N#Cc1ccc(Cl)cc1NC(=O)COC(=O)c1ccc2c(c1)OCCO2,0.2%,3,-4%,-4.9,1,9,5
CC1(C)CC(=O)C(C(=S)Nc2ccc(F)cc2)=C(NCCN2CCOCC2)C1,1.4%,9,-10%,2.0,-5,-14,-20
COc1cccc(Cn2cc(C(=O)NCCN(C)C)nn2)c1,0.3%,7,?,-2.9,-3,5,18
Cc1ccc(/C=C/C(=O)Nc2nnc(SCc3ccc(C#N)cc3)s2)o1,7.3%,-18,7%,-0.1,-10,-2,5
Cc1ccc2c(CC(=O)N(C)c3c(N)n(Cc4ccccc4)c(=O)[nH]c3=O)coc2c1,-2.1%,9,.,-3.2,-5,-1,-4
COCCOc1cc(N(CC(=O)N(C)C)S(=O)(=O)c2ccccc2)c(Cl)cc1Cl,0.6%,0,15%,-3.7,3,4,-11
Cc1nc2ccc(NC(=S)N3CCCC3)cc2nc1C,2.6%,9,-21%,-7.0,-3,-4,-1
O=C(COC(=O)c1cc(S(=O)(=O)N2CCOCC2)ccc1F)NCc1ccco1,2.0%,2,7%,-3.3,-17,7,-7
CN(C)C(=O)COc1ncnc2sc(-c3ccccc3)cc12,-0.2%,8,6%,-1.7,-13,.,14
O=Cc1cccn1-c1ccccc1,0.4%,1,-10%,-2.1,-3,0,-13
CCn1cc(CN2CCC(Oc3ccc(C(=O)N4CCCCC4)cc3)CC2)cn1,-0.9%,12,21%,-6.0,-17,10,19
O=C(COC(=O)c1cccc(S(=O)(=O)N2CCOCC2)c1)NCCc1ccccc1,-0.4%,-1,31%[activator],0.6,-3,5,-2
O=C(CSc1nnnn1-c1cccc2c1CCCC2)N1CCOCC1,.,5,9%,-4.8,-10,7,9
CCOC(=O)CCCCC(=O)NC(CO)C(=O)NC (stereo not given),2.0%,23,13%,-4.0,-17,0,6
NNC(=O)c1cccc(O)c1,1.0%,0,1%,0.0,0,-8,-3
C=CCOc1ccc2c(c1)CCC1C2CCC2(C)C(O)C(O)CC12 (stereo not given),-1.7%,0,.,2.0,-36,0,.

# The closing five compounds of the section before come first, to join the parts.
SMILES,PINK1 modulator,Six1-Eya2 blk,Sfp PPTase inh,D2 agonist,D2 potentiator,CtBP-E1A blk,TRPV1 PAM
O=C(COC(=O)c1cccc(S(=O)(=O)N2CCOCC2)c1)NCCc1ccccc1,-0.4%,-1,31%[activator],0.6,-3,5,-2
O=C(CSc1nnnn1-c1cccc2c1CCCC2)N1CCOCC1,.,5,9%,-4.8,-10,7,9
CCOC(=O)CCCCC(=O)NC(CO)C(=O)NC (stereo not given),2.0%,23,13%,-4.0,-17,0,6
NNC(=O)c1cccc(O)c1,1.0%,0,1%,0.0,0,-8,-3
C=CCOc1ccc2c(c1)CCC1C2CCC2(C)C(O)C(O)CC12 (stereo not given),-1.7%,0,.,2.0,-36,0,.
CCCSc1nc2c3c(sc2c(=O)[nH]1)CC(C)(CC)OC3 (stereo not given),-0.3%,1,-7%,1.3,-5,10,-8
COc1ccc(CCNC(=O)c2ccc(Cl)c(S(=O)(=O)N3CCCCCC3)c2)cc1,3.5%,-14,.,-0.8,-4,.,-8
CCN(CC)CCOCCOC(=O)C(CC)(CC)c1ccccc1,-1.8%,-1,5%,-3.7,-5,-6,-10
O=C(CS(=O)(=O)Cc1ccccc1)NCc1ccco1,1.1%,-2,7%,-5.6,-3,0,-5
C=CCN1C(=Nc2ccccc2)SC/C1=C\C(=O)OC,9.7%[38.3 µM],7,-11%,0.1,2,9,-12
Cc1cc(C)cc(NC(=O)N(CCC#N)Cc2cccs2)c1,-0.1%,3,-2%,-0.7,-10,-4,9
COc1ccc(-n2c(C)cc(-c3csc(NC(=O)c4ccc(S(=O)(=O)N(C)C)cc4)n3)c2C)cc1,0.7%,-4,-5%,-3.3,-2,-5,1
O=C(COC(=O)CCSc1ccccc1)NCc1ccc(F)cc1,-0.1%,5,-1%,1.5,5,0,-12
O=S(=O)(c1ccccc1)c1nc(-c2ccco2)oc1Nc1ccccc1,3.1%,-13,3%,-1.1,28,-6,-4
Cc1ccc(-c2cc(C(=O)Nc3c(C)n(C)n(-c4ccccc4)c3=O)no2)cc1,0.0%,3,-4%,-2.5,-8,9,-1
Nc1c(N=O)c(=O)[nH]c(=O)n1-c1ccccc1,0.7%,-11,.,-9.0,-1,4,.
NC(N)=Nc1ccc(N=C(N)N)cc1,2.4%,0,9%,0.5,-7,.,-6
CCn1cc(C(=O)N[C@@H](C)C(=O)NCCCn2ccnc2)c(=O)c2cc3c(cc21)OCO3,0.4%,?,6%,1.0,-5,-6,11
COc1ccc(OC)c(NC(=O)CCNC(=O)c2ccco2)c1,-1.1%,-3,5%,-4.0,-5,-1,-10
O=C(CN(c1cccc(Br)c1)S(=O)(=O)c1ccccc1)N/N=C/c1cc([N+](=O)[O-])ccc1O,0.6%,-14,.,-4.1,-6,?,.
Cc1ccc(NC(=O)C2CCN(C(=O)NCc3ccccc3)CC2)cc1C,3.3%,3,17%,-0.9,-11,0,-12
CCOc1ccc(S(=O)(=O)N2CCC(C(=O)NCCc3ccccc3)CC2)cc1,5.6%,5,14%,-5.0,-1,-19,-4
O=[N+]([O-])c1c(O)c(Cl)cc(Cl)c1Cl (tested in a mixture with another compound),?,-3,.,-2.3,-12,-9,.
COc1cccc(C(=O)CC(=O)C(=O)Nc2cc(Cl)c(OC)cc2OC)c1,1.3%,-11,-2%,-5.4,-11,2,4
COc1ccc(-c2oc(=O)c3cc(OC)c(OC)cc3c2C#CC2(O)CCCCC2)cc1,1.6%,6,.,-2.6,0,4,.
CCCCNC(=O)C[C@@H]1C[C@@]2(C(=O)OCC)CCC=C2N(Cc2ccccc2)C1=O,0.2%,0,.,.,.,3,.
CC1CCc2c(sc3nc(CN4CCN(S(=O)(=O)c5ccccc5[N+](=O)[O-])CC4)[nH]c(=O)c23)C1 (stereo not given),0.6%,2,19%,1.1,-8,6,2
COc1ccc(N2CC(C(=O)N/N=C/c3cccs3)CC2=O)cc1 (stereo not given),2.7%,-4,?,-0.8,-6,.,4
CC(C)OCC1CC(CC(=O)NC(=S)Nc2cccc([N+](=O)[O-])c2)C(=O)O1 (stereo not given),0.9%[38.3 µM],0,18%,-2.5,-18,7,-16
CC(C)CCNC(=O)Cn1c(NCCC(C)C)nc2c1c(=O)n(C)c(=O)n2C,1.0%,-11,.,2.2,-11,-8,.
CN(C)S(=O)(=O)N1CCN(C(=O)c2cccc(Br)c2)CC1,0.4%[38.3 µM],5,20%,-1.3,-6,-13,-9
COc1ccc(-n2c(C)nc3c(cnn3-c3ccc(Cl)cc3)c2=O)cc1,-1.3%,-2,-18%,1.5,-16,-1,5
O=c1[nH]c(/C=C/c2ccccc2Cl)c([N+](=O)[O-])c(=O)[nH]1,-0.5%,-3,-4%,-6.3,-5,-10,2
O=C(NCc1ccccc1)C(=O)NCC1COc2ccccc2O1 (stereo not given),6.3%,-1,24%,-2.5,-11,4,0
C=CCOc1ccccc1CN1CCCN(C)CC1,1.9%,8,-29%,-7.4,-34,.,7
O=C(Nc1ccccc1C(F)(F)F)c1cc(-c2ccc(O)cc2)on1,10%[38.3 µM],0,-29%,1.8,-4,4,1
